Giardia FBPA inh = qHTS Assay for Inhibitors of Fructose-1,6-bisphosphate Aldolase from Giardia Lamblia; AID 2451, 2010; purified Giardia FBPA; A8B2U2; hit rate 0.71% among 290,000; Potency, µM (doses to about 59.6 µM), for inactives: top-dose activity, negative = inhibition, hits mostly inhibitors; active = well fitted inhibition curve with a large enough effect; also: nearly all actives have a fitted effect of over 55% in size
Target sequence (A8B2U2 whole entry, looked up): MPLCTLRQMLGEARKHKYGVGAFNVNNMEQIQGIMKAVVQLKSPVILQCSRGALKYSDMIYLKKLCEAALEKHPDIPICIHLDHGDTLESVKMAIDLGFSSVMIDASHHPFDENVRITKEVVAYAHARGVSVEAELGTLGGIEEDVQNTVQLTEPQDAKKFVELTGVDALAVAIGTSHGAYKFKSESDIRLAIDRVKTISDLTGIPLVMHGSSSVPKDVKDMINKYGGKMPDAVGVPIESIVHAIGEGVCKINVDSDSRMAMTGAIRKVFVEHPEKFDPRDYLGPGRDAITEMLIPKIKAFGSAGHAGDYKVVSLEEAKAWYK
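40 nM FBPA preincubated 10 min at RT with compound (up to 57.5 uM final), then substrate plus GAPDH/TPI/NAD/arsenate coupling and diaphorase/resazurin added. Fluorescence read after 20 min at RT, 525/598 nm.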
Active calls of the source: *; & = joins results of further samples; [ ] = dose if it differs, or a comment. % is scaled to controls: 0 for no effect and ±100 for the full control effect; potency is read from the fitted curve at half-maximal effect. Some of the compounds tested; most or all hits stand in other tables.

compound,Giardia FBPA inh
O=C(O)CC(O)C(=O)O (configuration not stated),1%
CCN(CC)CCCC(C)Nc1ccnc2cc(Cl)ccc12 (configuration not stated),0%&4%
CCCC(=O)Nc1ccc(OC[C@@H](O)CNC(C)C)c(C(C)=O)c1,-2%[21.7 µM]
CN1CCN(CC/C=C2/c3ccccc3Sc3ccc(S(=O)(=O)N(C)C)cc32)CC1,-3%&-1%
Cc1nn(-c2ccccc2)c(Cl)c1/C=N/NC(=O)c1ccncc1,2%
CN[C@H]1CC[C@@H](c2ccc(Cl)c(Cl)c2)c2ccccc21,-30%&-4%&-4%&-6%&-8%
Nc1ccc(S(=O)(=O)c2ccc(N)cc2)cc1,9%
Cc1csc(SCC(=O)Nc2sccc2C#N)n1,-5%
CC(C)(C)NC(=O)[C@@H]1C[C@@H]2CCCC[C@@H]2CN1C[C@@H](O)[C@H](Cc1ccccc1)NC(=O)[C@H](CC(N)=O)NC(=O)c1ccc2ccccc2n1,21%
CN(C)CCOC(c1ccccc1)c1ccccc1,-14%
Cc1ccccc1C(=O)N/N=C/c1ccc(Sc2ccccn2)o1,-25%
COc1cccc(N2CCN(CC(=O)Nc3ccc(-n4cnnn4)cc3)CC2)c1,0%
Cc1cc(NS(=O)(=O)c2ccc(N)cc2)no1,2%
CC(Cc1ccc(O)cc1)NCC(O)c1cc(O)cc(O)c1 (configuration not stated),2%&-1%&-5%
N[C@H](CO)C(=O)O,-1%
CCCCCn1c(=O)[nH]c2cc(C(=O)NCCCN(C)Cc3ccccc3)ccc2c1=O,8%
COc1ccc(S(=O)(=O)N2CCN(CC(=O)Nc3cc(C(F)(F)F)ccc3Cl)CC2)cc1,0%
CCOC(=O)c1c(C)oc2ccc(O)cc12,-1%
CC(=O)C(N=Nc1ccccc1)(Sc1nnc(-c2ccccc2)n1-c1ccccc1)C(C)=O,5%
NCCCC(=O)O,-3%&1%&0%&5%
CC(=O)O[C@H]1C(=O)[C@@]2(C)C([C@H](OC(=O)c3ccccc3)[C@]3(O)C[C@H](OC(=O)[C@H](O)[C@@H](NC(=O)c4ccccc4)c4ccccc4)C(C)=C1C3(C)C)[C@]1(OC(C)=O)CO[C@@H]1C[C@H]2O (some centres not stated),-6%
N[C@H](Cc1cc(I)c(Oc2ccc(O)c(I)c2)c(I)c1)C(=O)O,-16%[21.7 µM]
C#C[C@]1(O)CCC2C3CCC4=C(CCC(=O)C4)C3CC[C@@]21C (some centres not stated),-2%
COc1ccc(C[C@H](C)NC[C@@H](O)c2ccc(O)c(NC=O)c2)cc1,0%
COc1c2occc2cc2ccc(=O)oc12,-2%
COc1cccc([C@@]2(O)CCCC[C@@H]2CN(C)C)c1,0%&3%&-5%
CCCC(CCC)C(=O)O,-1%&-7%&0%
O=C(c1cnn(-c2ccc(Cl)cc2)c1)c1ccccc1O,0%

No new results follow: 2 of the compounds above.
compound,Giardia FBPA inh
CCCC(CCC)C(=O)O,-1%&-7%&0%
O=C(c1cnn(-c2ccc(Cl)cc2)c1)c1ccccc1O,0%

Grouped by structure, the entries above with nitrogen in an aromatic ring (10)
compound,Giardia FBPA inh
CCN(CC)CCCC(C)Nc1ccnc2cc(Cl)ccc12 (configuration not stated),0%&4%
Cc1nn(-c2ccccc2)c(Cl)c1/C=N/NC(=O)c1ccncc1,2%
Cc1csc(SCC(=O)Nc2sccc2C#N)n1,-5%
CC(C)(C)NC(=O)[C@@H]1C[C@@H]2CCCC[C@@H]2CN1C[C@@H](O)[C@H](Cc1ccccc1)NC(=O)[C@H](CC(N)=O)NC(=O)c1ccc2ccccc2n1,21%
Cc1ccccc1C(=O)N/N=C/c1ccc(Sc2ccccn2)o1,-25%
COc1cccc(N2CCN(CC(=O)Nc3ccc(-n4cnnn4)cc3)CC2)c1,0%
Cc1cc(NS(=O)(=O)c2ccc(N)cc2)no1,2%
CCCCCn1c(=O)[nH]c2cc(C(=O)NCCCN(C)Cc3ccccc3)ccc2c1=O,8%
CC(=O)C(N=Nc1ccccc1)(Sc1nnc(-c2ccccc2)n1-c1ccccc1)C(C)=O,5%
O=C(c1cnn(-c2ccc(Cl)cc2)c1)c1ccccc1O,0%

Compound activity: PubChem, National Center for Advancing Translational Sciences (NCATS)
